AID504770: growth inhibition of E. coli YBA685, primary screen, V. cholerae RctB inhibitors; actives 0.27% (n = 130,000); AID 504770, 2011; z-score (test concentration not listed); E. coli YBA685 rctB-dependent plasmid, OD600 growth, 3 h; active compounds read low;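 active means z-score under -2 on both plates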;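 further: wells of about 30 µL received 100 nL stock; score is relative to mean and SD of the test wells; the first replicate is given; strong numbers were not always called active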
Ba CapD inh: Bacillus anthracis CapD inhibitors, primary screen, biochemical, fluorescence intensity | CapD gamma-glutamyltranspeptidase (Bacillus anthracis Ames Ancestor) | purified CapD enzyme, fluorescence intensity read-out; active compounds read low; some hits fall short of the stated cut | z-score (concentration not given with the values) | actives 0.23% (n = 140,000);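 active means z-score under -4 in either of two replicates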;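 further: stock transfer was 100 nL into about 40 µL; score is relative to mean and spread of the plate; one replicate is shown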
Starred values were filed as active, the others as inactive; . = no result given. These rows are one share of the data, so the mix of outcomes need not match the whole.

compound	AID504770	Ba CapD inh
O=C(O)CSCc1csc2c1CCCC2	0.6	0.51
CCNc1nc(NCC)n2c(SCC(=O)c3cccc(C(F)(F)F)c3)nnc2n1	-2.1	.
CN(c1ccccc1)S(=O)(=O)c1c[nH]c(=O)[nH]c1=O	-0.35	.
COc1ccc(C2NN(Cc3ccccc3)C3C(=O)N(Cc4ccccc4)C(=O)C23)cc1 (centres undefined)	0.25	-0.61
CCC(=O)N1c2ccccc2N2C(c3c(C)c(C)cc(C)c3C)=NON12	.	-0.03
COC(=O)COc1ccc(S(=O)(=O)N2CCC(C)CC2)cc1	-0.05	.
O=C(CSc1ncnc2ccccc12)Nc1ccnn1C1CCCC1	-0.95	.
O=C(c1cccs1)N1CCN(Cc2cc3cccc4c3n(c2=O)CCC4)CC1	.	3.2
CCON1C(=O)c2ccccc2C1=O	-0.75	0.7
CCN(CC)c1ccc(-c2n[nH]c(=S)n2-c2ccccc2C)cc1	-0.3	.
CCCNC(=O)c1cnn2c(C)c(Cc3ccccc3)c(C)nc12	-0.7	-0.53
Cc1ccc(C2c3c(oc4ccccc4c3=O)C(=O)N2c2ccccn2)cc1 (centres undefined)	0.5	0.42
Nc1ncc2c(n1)CC(c1ccccc1)CC2=O (centres undefined)	0.25	0.15
c1ccn(-c2cnccn2)c1	0.05	-0.21
CCOC(=O)C1C(c2ccccc2)NC(=S)NC1(O)c1ccccc1 (centres undefined)	.	-0.32
CCOC(=O)C(CCC#N)(CCC#N)C(C)=O	.	0.17
COc1ccc(OC)c(/C=N/NC(=O)Cc2c[nH]c3ccccc23)c1	.	53
O=C(NCCN1C(=O)C2C3C=CC(C3)C2C1=O)Nc1ccccc1 (centres undefined)	-0.15	0.42
CCc1nn2c(=O)cc(COc3ccc(/C=C4/C(=N)N5C=CSC5=NC4=O)cc3)nc2s1	-0.45	-1.3
O=C(CN1C(=O)COc2ccccc21)Nc1ccc(S(=O)(=O)Nc2ncccn2)cc1	-0.2	.
COC(=O)c1c(C(C)(C)C)oc2c1cc(NS(=O)(=O)c1ccc(C)cc1C)c1ccccc12	.	0.3
COc1cccc(N2CCN(S(=O)(=O)c3cccc(Br)c3)CC2)c1	.	-0.2
CC(CC(=O)O)CC(=O)N1CC=C(n2c(=O)[nH]c3ccccc32)CC1 (centres undefined)	.	0.29
O=C(C1CCCCC1)N1CCc2[nH]c3ccc(F)cc3c2C1	-0.25	-0.45
O=C(CSc1ccccc1C(=O)O)NC1CCCc2ccccc21 (centres undefined)	-2	-0.27
Cc1ccc2c(c1)C1CN(C)CCC1N2C(=S)Nc1ccc(S(=O)(=O)N2CCOCC2)cc1 (centres undefined)	-0.05	.
Nc1c(N2CCCC2)c2ccccc2oc1=O	-1.9	-1.1
Cn1c(=O)c(-c2nc(-c3ccccc3)cs2)cn(-c2ccccc2)c1=O	1.3	-1
COC(=O)c1c(Cl)cccc1Oc1nc(OC)cc(OC)n1	.	0.075
O=C1c2ccccc2NC(c2ccc(Cl)cc2Cl)N1O (centres undefined)	0.05	3.9
CCOc1ccc2c(c1)-c1c(ssc1=S)C(C)(C)N2C(=O)CSc1nncn1C	.	-1.7
CC1CCc2c(sc3nc(=S)sc(N)c23)C1 (centres undefined)	-0.05	0.22
COC(CNC(=O)c1ccc(Cn2nnc3ccccc3c2=O)cc1)OC	0.2	30
COC(=O)c1cc(NC(=O)c2cc3nc(-c4ccc5c(c4)OCO5)cc(C(F)(F)F)n3n2)cc(C(=O)OC)c1	.	-0.33
CC(C)n1c(CN(C)c2ccccc2)nc2ccccc21	2.4	.
CCOC(=O)/C=c1\s/c(=C\c2ccc(C#N)cc2)c(=O)n1CC(=O)N1CCCCC1C (centres undefined)	2	.
O=c1c2ccccc2n(Cc2ccccc2)c(=O)n1-c1cccc(Cl)c1	0.4	-1.1
CCS(=O)(=O)NCCCc1ccccc1	-1.1	-0.065
CN(Cc1cc2ccccc2[nH]c1=O)C(=O)c1ccccc1	-0.75	.
COc1ccccc1C1CC(c2c(-c3ccccc3)c3cc(Cl)ccc3[nH]c2=O)=NN1C(C)=O (centres undefined)	.	1.1
CCCOc1ccc(C2NC(=O)NC(C)=C2C(=O)OC2CCCCCCC2)cc1OC (centres undefined)	.	-0.35
CCOC(=O)c1sc2nc(C)cc(C)c2c1N(C(C)=O)C(C)=O	0.55	-0.66
COC(=O)c1ccc(CSc2nc(N)cc(N)n2)cc1	-0.9	0.12
COc1cc(/C=N/n2c(=S)[nH]nc(C)c2=O)cc(Br)c1O	2	-1.8
COc1ccc(COC(=O)C2=C(C)NC3=C(C(=O)CC(C)(C)C3)C2c2coc3ccccc3c2=O)cc1 (centres undefined)	.	-0.5
CCOC(=O)C1=C(C)NC2=C(C(=O)C(C(=O)OCC)C(c3ccc(OC)cc3)C2)C1c1ccc(Br)cc1 (centres undefined)	.	2.8
O=C(NCCCn1ccnc1)c1nn2c(C(F)(F)F)cc(-c3ccc(Cl)cc3)nc2c1Cl	.	0.045
CCc1ccccc1Nc1ncnc2c1cnn2-c1ccccc1	1.9	-1.3
CCN1C2=C(C(=O)CC(C)(C)C2)C(c2ccccc2O)C2=C1CC(C)(C)CC2=O	.	-0.59
O=C(Nc1ccc(Oc2ccc(Cl)c3ccccc23)c(Cl)c1)c1cc(I)cc(I)c1O	.	0.13
CCN(C(=O)Cn1cnc2c(cnn2C)c1=O)c1ccccc1	0.2	.
Cc1ccc(Nc2nc(NCc3ccco3)c3ccccc3n2)cc1	.	16
COc1ccc(C2CC(=O)C3=C(C2)NC(C)=C(C(=O)OC(C)C)C3c2cc3c(cc2Br)OCO3)cc1 (centres undefined)	.	11
COc1ccc(C2CC(C(F)(F)F)n3ncc(C(=O)Nc4cc5c(cc4C(C)O)OCO5)c3N2)cc1OC (centres undefined)	.	-0.85
CCCCn1cnc2cc(NCc3ccncc3)ccc21	0.65	1.3
O=C(Cc1csc2ccccc12)Nc1ccc(F)cc1	-1.2	-0.4
C/C(=N\OC(=O)c1nn(C)cc1Br)c1ccc(Cl)cc1Cl	0.4	.
Cc1ccc(Cn2nc(C)c(/C=C/C(=O)O)c2Cl)cc1	-0.6	.
COC(=O)c1cc(=O)c2cc(C(F)(F)F)ccc2[nH]1	1.9	14
CN(C)C(=S)Nc1ccc(C(C)(C)C)cc1	-0.6	0.84

(list continues)
compound	AID504770	Ba CapD inh
CN(C)C(=O)Cc1ccc(S(=O)(=O)N2CCCC2)s1	1.7	.
COc1cc(/C=N/OC(=O)c2ccc(Cl)c(Cl)c2)cc(OC)c1OC	.	1.3
O=S(=O)(Nc1ccccc1)c1ccc2oc3ccc(S(=O)(=O)Nc4ccccc4)cc3c2c1	0.75	0.31
CN(C(=O)NCc1noc2ccccc12)c1ccccc1	-0.25	-0.15
CCOC(=O)c1sc(NC(=O)C2CC(=O)N(c3ccccc3)C2)c(C#N)c1C (centres undefined)	-0.15	.
N#Cc1ccc(NC(=O)Cc2ccccc2)cc1	0.45	0.74
CCOC(=O)c1c(NC(=O)CSc2nccn2C)sc2c1CCCC2	-0.45	.
Cc1ccc(-c2nc(N)sc2CC(=O)OCC(=O)NCc2cccs2)cc1	1.9	.
CCOc1ccc2cc(C3CC(c4ccc(Br)cc4)=NN3C(=O)CC)c(=O)[nH]c2c1 (centres undefined)	.	-0.71
O=C(CN1C(=O)CCC1=O)c1ccc(F)cc1	-0.3	1.5
CC1=CC(=C(C#N)C#N)C=C(c2ccccc2)O1	1.5	-0.15
N#CC1=C(SCC(=O)Nc2cccc(Cl)c2)NC2=C(C(=O)CCC2)C1c1ccco1 (centres undefined)	-0.85	0.12
COC(=O)C(CC(C)C)NC(=O)c1ccc2c(c1)OCO2 (centres undefined)	-0.35	-0.29
O=C(CN(Cc1ccccc1)S(=O)(=O)c1ccc(Br)cc1)N1CCOCC1	-0.05	0.24
Cc1cc2ccccc2n1-c1ccc(C(=O)N2CCC(C(=O)N(C)Cc3ccccc3)CC2)s1	0.35	0.085
O=C(O)c1cc2cc(Cc3cccnc3)ccc2o1	1.8	-0.26
O=C1CCC(Cc2ccccc2)C(C(=O)O)C1 (centres undefined)	-0.6	0.29
O=C1CCCC2=C1C(c1ccc(Cl)cc1)C1C(=O)c3ccccc3C1=N2 (centres undefined)	.	1.9
Cc1cc(C(=O)CSc2nnc(N)s2)c(C)n1Cc1cccs1	-0.55	.
CCOC(=O)c1ccccc1NC(=O)c1sc2nc(C)nc(N3CCN(c4ccccn4)CC3)c2c1C	.	-0.36
O=C(COc1cccc(NC(=O)C(F)(F)C(F)F)c1)N1CCOCC1	-1.2	-0.64
COc1cc(C2C(C(=O)N3CCCCC3)=C(C)NC3=C2C(=O)CC(C)(C)C3)cc(OC)c1O (centres undefined)	1.9	0.17
Cc1nc(SCC(=O)N2CCCC2)c2c(C)c(C)sc2n1	-0.1	.
Cn1cccc1C(C#N)c1ncc(C(F)(F)F)cc1Cl (centres undefined)	0.55	-0.29
Cc1coc2cc3oc(=O)c4c(c3cc12)CCC4	2.1	11
COc1cc(NC(=O)Cn2c3ccccc3c(=O)c3ccccc32)cc(OC)c1OC	.	2.8
Cc1ccc(NC(=O)OC(C)(C)C)s1	-0.7	0.39
CCCN1C(=O)/C(=c2\sc3n(c2=O)C(c2ccccc2)C(C(=O)OCC)=C(C)N=3)c2ccccc21 (centres undefined)	.	0.17
c1ccc(-c2cc(-c3ccccc3)on2)cc1	.	0.31
Cc1ccc2cc(C(c3nnnn3C3CCCC3)N3CCCc4ccccc43)c(=O)[nH]c2c1 (centres undefined)	-0.45	.
O=c1c(-c2ccc(Br)cc2)coc2cc(OC3OC(O)C(O)C(O)C3O)ccc12 (centres undefined)	.	-1.7
COCCNC(=O)c1cc2c(=O)n3cccc(C)c3nc2n(C)c1=N	0.7	.
CCCn1c2ccc(C)cc2c2nnc(SCCN3CCOCC3)nc21	0	0.2
O=C(c1ccccc1SCc1ccccc1)N1CCCc2ccccc21	0.25	0.38
O=C1NC(CCc2ccccc2)C(=O)N1Cc1cc(=O)n2ccsc2n1 (centres undefined)	-0.3	.
Cc1cc(N2CCCCC2)nc(N2CCC(O)(Cc3ccccc3)CC2)n1	0.4	.
COc1cc(OC)nc(Oc2ccccc2-c2ccno2)n1	.	-0.57
O=C(Cn1cnc(Cl)c1Cl)NNC(=O)OCCc1ccccc1Cl	.	-0.66
CCc1ccc(NC(=O)C(=O)NCCN2CCN(C(=O)c3ccc(OC)c(OC)c3)CC2)cc1	.	0.36
CC1(C)CC(NCCC(=O)NC2CC(C)(C)NC(C)(C)C2)CC(C)(C)N1	.	-0.24
O=C(c1cnccn1)N(Cc1cccs1)C1(C(=O)NC2CCCC2)CCCCC1	2.5	-1.6
O=C(NNS(=O)(=O)c1ccc(Cl)cc1)c1sccc1-n1cccc1	.	-0.06
CC(=O)Nc1cc(NC(C)=O)cc(C(=O)N2CCCC3CCCCC32)c1 (centres undefined)	-1.3	.
CCCOC(=O)C1=C(C)NC2=C(C(=O)CC(c3ccc(OC)cc3)C2)C1c1cc2c(cc1Cl)OCO2 (centres undefined)	.	24
COc1cc(C(C(=O)NC2CCCCC2)N(Cc2ccco2)C(=O)c2cnccn2)cc(OC)c1OC (centres undefined)	-0.35	.
CCCCNC(=O)CN1N=C(c2ccccc2)CCC1=O	0.5	0.45
Fc1ccc(-c2nc3cc(C(F)(F)F)cc(Br)c3nc2-c2ccc(F)cc2)cc1	.	-0.25
COc1ccc(OC)c(COC(=O)NCc2csc3ccccc23)c1	.	0.36
Clc1ccc(NC2=NCCCS2)cc1Cl	0.8	0.045
CCOC(=O)c1ccc(N2C(=N)S/C(=C\c3ccc(N4CCN(C)CC4)c([N+](=O)[O-])c3)C2=O)cc1	.	-0.62
Cc1cccc(CCNC(=O)CSc2c3c(nc4ccc(Cl)cc24)CCCC3)c1	-0.1	0.46
O=C(Nc1nc(-c2cc3ccccc3oc2=O)cs1)c1cnn2c(C(F)(F)F)cc(-c3ccccc3)nc12	.	-0.65
CCSc1[nH]c(=O)cc(C)c1C#N	0.25	.

Grouped by structure, those above with a cyano group
compound	AID504770	Ba CapD inh
CCOC(=O)C(CCC#N)(CCC#N)C(C)=O	.	0.17
CCOC(=O)/C=c1\s/c(=C\c2ccc(C#N)cc2)c(=O)n1CC(=O)N1CCCCC1C (centres undefined)	2	.
CCOC(=O)c1sc(NC(=O)C2CC(=O)N(c3ccccc3)C2)c(C#N)c1C (centres undefined)	-0.15	.
N#Cc1ccc(NC(=O)Cc2ccccc2)cc1	0.45	0.74
CC1=CC(=C(C#N)C#N)C=C(c2ccccc2)O1	1.5	-0.15
N#CC1=C(SCC(=O)Nc2cccc(Cl)c2)NC2=C(C(=O)CCC2)C1c1ccco1 (centres undefined)	-0.85	0.12
Cn1cccc1C(C#N)c1ncc(C(F)(F)F)cc1Cl (centres undefined)	0.55	-0.29
CCSc1[nH]c(=O)cc(C)c1C#N	0.25	.

Retrieved by structure from above (3):
compound	AID504770	Ba CapD inh
Cc1cc(N2CCCCC2)nc(N2CCC(O)(Cc3ccccc3)CC2)n1	0.4	.
Clc1ccc(NC2=NCCCS2)cc1Cl	0.8	0.045
CCc1ccc(NC(=O)C(=O)NCCN2CCN(C(=O)c3ccc(OC)c(OC)c3)CC2)cc1	.	0.36

Compound activity (PubChem)
